CSC inhib = cancer stem cell viability inhibitors, primary screen, luminescence; inhibition, % at 7.5 µM; 300,000 compounds, 1.1% hits; AID 2717, 2010; cancer stem cell-like cells viability;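 active means mean at 75% or more and at least half the replicates too; inconclusive means mean and replicates disagree; tested in HMLE shEcad cells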;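 further: 0% = median of negative and 100% = median of positive control wells; the first replicate is given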
eIF4H inh = human eIF4H binding inhibitors, primary screen, translation initiation inhibitor project, biochemical, uHTS, fluorescence polarization; AID 2012, 2009; eIF4H fluorescence polarization binding assay; Eukaryotic translation initiation factor 4H (Homo sapiens), Q15056; inhibition, % at 35 µM; 290,000 compounds, 0.94% hits;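 active means 50% or more with normal probe brightness, or confirmed in later tests; inconclusive means above 50% with abnormal brightness, or retests that disagree; inactive means below 50% or failed in later tests; about a fifth of its hits are not listed in these tables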;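 further: calls also rest on retests at 20 µM and on dose response follow-up; 0% = protein and probe with vehicle and 100% = probe without protein; strong numbers were not always called active; many hits fall short of the cut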
PABP FP inh = PABP poly(A) RNA binding inhibitors, primary screen, biochemical, fluorescence polarization, uHTS; AID 2014, 2009; 290,000 compounds, 1% hits; Polyadenylate-binding protein 1 (Homo sapiens), P11940; inhibition, % at 35 µM;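 active means 50% or more with normal probe brightness, or confirmed in later tests; inconclusive means above 50% with abnormal brightness, or retests that disagree; inactive means below 50% or failed in later tests; about a fifth of its hits are not listed in these tables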;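 further: calls also rest on retests at 20 µM and on dose response follow-up; controls were probe without protein and protein plus probe with vehicle; some compounds called inactive have numbers as strong as hits; many hits fall short of the cut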
MT1-MMP act inh = blockers of MT1-MMP proenzyme processing, primary screen, HT1080 RFP-PRO-GFP cells, GFP/RFP fluorescence. Matrix metalloproteinase-14 (Homo sapiens), P50281. GFP/RFP ratio fluorescence, overnight; percent of plate control window, DMSO zero. 360,000 compounds, 0.061% hits. GFP/RFP ratio change, % at 20 µM;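 active means GFP/RFP ratio change of at least 30% with cell ATP level not reduced by more than half and red fluorescence within 50% of control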; further: strong numbers were not always called active
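Assay system: HT1080 RFP-PRO-GFP cells. Benchmarks: DMSO vehicle wells and RFP-L50D-GFP reporter cell wells. Times: overnight cell settling, then overnight compound exposure, 37 °C, 5% CO2. Compound: 20 µM single dose, 1% DMSO. Read-out basis: GFP/RFP fluorescence ratio.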
Rce1 inh = yeast Rce1p protease inhibitors, primary screen, biochemical, fluorescence, cell-free homogeneous; calls only; yeast membranes, quenched prenylated peptide cleavage fluorescence; CAAX prenyl protease 2 (Saccharomyces cerevisiae (strain ATCC 204508 / S288c)), Q03530; 290,000 compounds, 0.27% hits;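 active means fall in fluorescence gain of 50% or more versus controls, with final raw signal at or below 3038400; inconclusive means same 50% fall but final raw signal above 3038400; inactive means fall in fluorescence gain under 50%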;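 further: plate controls were neutral control wells for no effect and wells lacking membranes for full effect; tested at 10 µM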
Target sequence (Q03530 whole entry, looked up): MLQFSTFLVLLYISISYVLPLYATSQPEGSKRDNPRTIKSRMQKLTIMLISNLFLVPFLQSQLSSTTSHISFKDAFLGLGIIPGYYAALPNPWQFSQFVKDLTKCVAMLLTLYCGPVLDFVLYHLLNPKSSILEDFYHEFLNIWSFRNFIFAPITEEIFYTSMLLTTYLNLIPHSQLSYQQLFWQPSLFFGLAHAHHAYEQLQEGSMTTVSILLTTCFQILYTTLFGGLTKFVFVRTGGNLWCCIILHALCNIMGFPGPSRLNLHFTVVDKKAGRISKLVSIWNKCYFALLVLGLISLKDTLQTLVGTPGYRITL
UUG fidelity = modulators of yeast start codon fidelity, primary screen, whole organism, S. cerevisiae, single point, plate reader; S. cerevisiae UUG-firefly luciferase reporter, luminescence/redox ratio; activity score, % at 18.7 µM; 350,000 compounds, 0.13% hits;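 active means replicate mean at a twofold rise or more, about +100% in these data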;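 further: firefly luciferase made from a UUG start codon reports start codon fidelity; reporter light over untreated wells divided by growth signal over untreated wells; some hits fall short of that in this replicate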
Env fusion inh = inhibitors of HIV-1 Env-driven cell-cell fusion, primary screen, HeLa-JRFL effector, CEM21 target cells, luciferase; AID 651610, 2012; 360,000 compounds, 1.1% hits; inhibition, % at 12.3 µM;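 active means mean replicate inhibition score of at least 50 and every replicate individually at or above 50; inconclusive means only one of the two criteria met; inactive means mean below 50 and not all replicates reaching 50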;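 further: 0% = plate neutral controls and 100% = maraviroc near 300 nM; one replicate is shown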
eIF4H inh retest = also measured in eIF4H inh; calls as there; inhibition, %; compound at 20 µM; confirmation average;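 mean of two retest wells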
PABP FP inh retest = further read-out of PABP FP inh, marked with its call; inhibition, %; compound at 20 µM; confirmation repeats;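 mean of two retest wells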
MT1-MMP act inh RFP = also measured in MT1-MMP act inh; calls as there; RFP signal change, %; measured here: RFP expression control read;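 0 = vehicle wells; hits needed this value within 50% of zero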
* hit, by the source's call; i = inactive; ? = inconclusive; / = not tested or not shown; + = active, no number.

SMILES	CSC inhib	eIF4H inh	PABP FP inh	MT1-MMP act inh	MT1-MMP act inh RFP	Rce1 inh	UUG fidelity	Env fusion inh	others
CC(C)C(=O)Nc1ccc2c(c1)C(=O)NC2=O	-13.3	-6.9	0.4	-1.2	-0.4	i	/	7.9
CCOC(=O)C(CCc1ccccn1)c1ccccc1 (centres undefined)	/	/	/	-2.7	3.5	/	-13.6	3.8
CSc1nc(Oc2ccc3ccccc3c2)c2ccccc2n1	-4.8	6.0	-1.9	-8.4	-16.0	i	-10.8	/
NS(=O)(=O)c1ccc(CCNC(=O)c2nc(CS(=O)(=O)c3ccc(Cl)cc3)no2)cc1	-6.5	-3.5	7.4	1.8	1.9	i	-3.7	-7.9
C#Cc1ccc([C@H]2C=C(C(=O)OCC=C)O[C@@H](OCCCCO)C2)cc1	-7.0	/	/	-2.6	6.5	i	-11.7	8.0
O=c1cc(CN2CCN(c3ccccc3F)CC2)c2cc3c(cc2o1)CCCC3	2.8	0.2	-3.6	-4.5	-5.2	i	2.1	-52.6
C/C(=C\c1cccc(Br)c1)C(=O)c1c(C)cc(C)[nH]c1=O	-5.0	-9.1	5.7	-2.0	-2.2	i	-6.8	5.9
Cc1ccc(NCc2nnc(SCC(=O)Nc3cc(C)on3)n2C)cc1	3.8	-9.6	-7.2	-4.0	5.2	i	-12.5	/
COc1ccc(Nc2nc(NCc3ccco3)nc(N/N=C/c3ccccc3F)n2)cc1	/	14.1	-3.2	-1.9	-6.7	i	-19.2	-18.3
COc1ccc(N2CCN(C(CNC(=O)C(C)C)c3ccc4c(c3)OCO4)CC2)cc1 (centres undefined)	0.1	-2.0	-9.7	-1.8	-2.4	i	-14.1	-16.8
CCOC(=O)C1CCN(C(=O)COc2ccc3c(C)cc(=O)oc3c2)CC1	-14.9	/	/	1.0	2.6	i	/	-0.2
O=C(NC1CCS(=O)(=O)C1)c1cc2c(=O)n3ccccc3nc2n1Cc1ccccc1 (centres undefined)	/	/	/	0.2	6.8	/	-3.4	-25.5
CCOC(=O)N1CCN(C(=O)c2ccc(OCC)cc2)CC1	3.3	-2.1	-3.4	3.5	6.7	i	/	0.8
COC(=O)CN1CCN(C(=O)c2ccco2)CC1	25.4	-1.1	9.7	-2.8	3.4	i	-4.0	5.9
CC(=O)c1ccc(S(=O)(=O)N(C)CC(=O)NCc2ccco2)cc1	-2.6	/	/	-2.2	6.0	/	-6.2	-11.5
COc1ccc(C(=O)COC(=O)CCN2C(=O)C3C4CCC(C4)C3C2=O)cc1 (centres undefined)	-15.9	-4.0	-4.8	5.3	4.5	i	/	-26.4
COc1ccc(-c2cnc3n2CCCCC3)cc1	4.4	-5.1	-9.7	5.4	2.8	i	-22.7	-11.1
O=S(=O)(CCNCc1cccs1)c1ccc(Cl)cc1	5.0	-12.9	-4.2	0.6	4.4	i	0.8	8.6
Cc1ccc(-c2cnc(-c3ccncc3)o2)cc1	7.4	-0.9	0.2	0.6	-7.6	i	0.0	-208.1
CC(C)(C)C(=O)OC/C(N)=N/OC(=O)c1ccc(Cl)cc1	-9.6	-7.8	-12.9	12.0	0.9	i	0.5	2.7
Cc1ccc(-n2[nH]c(C)c(/C=N/NC(=O)c3ccc([N+](=O)[O-])cc3)c2=O)c(C)c1	35.7	12.5	?	8.7	5.8	i	/	2.4
O=C(CNC(=S)N(CCCN1CCOCC1)Cc1cccs1)NC1CC1	6.8	-4.9	6.4	2.7	4.5	i	-6.9	-14.1
Cc1cc2nnc(SCC(=O)N3CCCCC3)n2c(N)n1	1.4	-3.8	-5.7	0.4	1.1	i	/	-4.2
Cc1ccc2c(c1)N(C(=O)CCC(=O)N1CCC(C(N)=O)CC1)CC(C)O2 (centres undefined)	-7.9	-8.2	-6.1	-0.4	2.2	i	0.7	-2.5
CC(=O)NC1C(Oc2ccc3c(C)cc(=O)oc3c2)OC(COC(C)=O)C(OC(C)=O)C1OC(C)=O (centres undefined)	-9.2	3.0	-3.1	3.7	4.9	i	/	14.1
COc1ccc(/C=C(/NC(=O)c2ccccc2)C(=O)NC(Cc2c[nH]c3ccccc23)C(=O)O)cc1 (centres undefined)	-4.7	-5.7	8.7	-2.4	0.9	i	0.2	-9.6
c1ccc(-n2nnnc2-c2cnc(-c3ccncc3)nc2-c2cccs2)cc1	9.2	-0.1	9.3	-5.1	-4.3	i	-6.6	-17.2
COc1cc2cc(C(=O)N[C@@H](Cc3ccccc3)C(=O)O)n(C)c2c(OC)c1OC	-2.8	-9.9	-1.5	3.2	5.0	i	-6.8	0.2
COc1cccc([C@@H]2Oc3ccc(OC)cc3C(=O)[C@H]2O)c1	11.1	-8.6	3.5	2.2	2.9	i	-23.1	/
O=C(O)COc1c(-c2ccccc2)oc2ccccc2c1=O	/	-4.3	0.2	0.2	-3.8	i	-19.3	-16.8
CN(C)C(CNC(=O)c1ccc2nccnc2c1)c1ccco1 (centres undefined)	-6.5	/	/	0.5	3.9	/	-17.5	13.1
O=c1c(Cc2ccccc2)c(O)ccn1CCc1cnc[nH]1	-18.8	-5.8	0.1	-4.7	-0.6	i	-18.4	42.3
COc1ccc(/C=C/C(=O)OCC(=O)c2c(N)n(C)c(=O)n(C)c2=O)c(OC)c1	-11.2	8.7	5.0	-1.4	-0.1	i	-11.3	-11.7
Cc1cc(Cl)c(OCCOCCN2CCCCC2)c(Br)c1	63.1	6.5	3.0	-6.2	0.7	i	/	/
CC(C)S(=O)(=O)N1CCN(c2ccnc3cc(Cl)ccc23)CC1	-9.7	-2.2	-2.3	0.0	3.1	i	-16.7	7.8
Nn1c(SCC(=O)N2CCCCC2)nnc1-c1ccncc1	10.8	2.9	5.5	2.5	1.6	i	-18.4	/
CCc1ccc(C=NC23CN4CN(CN(C4)C2)C3)s1	13.3	-8.5	-3.9	0.1	-0.2	i	/	/
COC(=O)C(=NNc1c(C)n(C)n(-c2ccccc2)c1=O)C(=O)OC	-14.1	-1.5	-1.0	2.8	2.9	i	-22.2	/
O=C(Cc1ccccc1)NCC1CCCO1 (centres undefined)	-8.6	-1.6	7.3	-0.6	-1.0	i	-1.3	-2.6
Cc1ccc(S(=O)(=O)N(C)c2ccc(OC(C)C(=O)N3CCCC3)cc2)cc1C (centres undefined)	-1.4	/	/	1.1	-3.3	i	-11.3	-16.9
COC(=O)c1ccc(S(=O)(=O)N2CCN(CCO)CC2)n1C	2.4	2.8	4.6	/	/	i	96.3	2.3
Cc1cc(NC(=O)Cn2cnc3c(nnn3-c3ccc(C)c(Cl)c3)c2=O)no1	-8.7	-2.5	-6.4	0.5	2.9	i	/	-4.2
O=C(NCC1CCCO1)c1cccc(Br)c1 (centres undefined)	/	-3.0	-0.7	-3.6	0.4	i	/	/
Cc1cc(C)cc(NC(=O)CSc2nnc(Cn3c(=O)sc4ccccc43)n2C)c1	-8.3	-2.3	-13.4	1.7	1.9	/	-9.2	-11.6
CCCCCCn1c(SCC(C)C)nc2c1c(=O)[nH]c(=O)n2C	16.2	-3.2	-4.7	-11.2	-17.3	i	-7.0	/
Cc1nc(CNS(=O)(=O)c2cc([N+](=O)[O-])ccc2C)cs1	-8.4	-5.5	9.7	-2.7	-3.5	i	-10.7	9.1
O=C(CN1C2=NCCN2c2ccccc21)c1cccs1	-7.2	-0.8	88.7*	1.7	3.9	i	/	/	eIF4H inh retest=39.7;PABP FP inh retest=105.2*
CCc1ccc2[nH]c(=O)c(CN(Cc3ccccc3OC)Cc3nnnn3Cc3ccco3)cc2c1	28.4	17.7	9.3	-25.9	5.2	i	-16.0	/
COc1ccc(NC(=O)c2c[nH]c(=O)n(-c3ccc(C)c(C)c3)c2=O)c(OC)c1	/	/	/	-0.7	-2.4	/	-14.7	19.4
CS(=O)(=O)N1CCc2cc(C(=O)Nc3ccccc3Cl)ccc21	-1.9	-11.4	-9.4	5.8	-2.7	/	0.8	-22.9

Next structures
SMILES	CSC inhib	eIF4H inh	PABP FP inh	MT1-MMP act inh	MT1-MMP act inh RFP	Rce1 inh	UUG fidelity	Env fusion inh	others
CCOC(=O)C1(C)CCCN(C(=O)c2cc(C)oc2C)C1 (centres undefined)	/	/	/	0.1	0.7	/	-10.6	-33.1
O=C(NCCc1ccccc1)C1CCCN1C(=O)Nc1ccc(Cl)cc1 (centres undefined)	-24.3	3.0	7.9	6.4	3.7	i	-7.0	-141.8
CC(=O)Oc1ccc(C(=O)Nc2ccc(S(=O)(=O)NCC3CCCO3)cc2)cc1 (centres undefined)	/	0.4	-2.4	-0.3	-6.4	+	12.7	16.0
CCOC(=O)C1CCCN(C(=S)Nc2ccc(S(=O)(=O)N3CCOCC3)cc2)C1 (centres undefined)	2.3	/	/	6.6	-5.3	/	-21.9	16.9
CCCCCCCC(=O)OC(CN1CCCCCC1)CN1CCCC1=O (centres undefined)	-1.3	1.0	8.7	0.1	2.3	i	/	20.7
O=C(c1cccs1)c1ccc(-c2cccs2)s1	6.5	-10.4	14.4	-1.3	3.6	i	/	/
CN(C)S(=O)(=O)c1ccc(Cl)c(NC(=O)CSc2nc3c(cc2C#N)C(=O)CC(C)(C)C3)c1	12.1	-4.4	-1.5	2.0	-0.4	i	-11.2	6.5
Cc1ccc(C(=O)NC(=C(Cl)Cl)S(=O)(=O)c2ccc(Cl)cc2)cc1	-4.5	-6.6	-1.7	1.5	3.4	i	/	-10.4
O=C(COC(=O)COc1ccc(Cl)cc1)NC1CCS(=O)(=O)C1 (centres undefined)	/	/	/	3.0	-0.3	/	-13.5	-1.9
COc1ccc(CCNC(=O)c2ccccc2OCc2c(C)noc2C)cc1	/	/	/	-0.4	-0.6	/	-15.1	8.2
CC(C)(Cc1ccccc1)/[N+]([O-])=C\c1ccccc1	-1.6	/	/	-2.6	-1.0	i	-17.5	-12.6
CCOC(=O)C1CCN(Cc2nc(-c3ccc(OC)c(OC)c3)no2)CC1	-1.7	1.1	-5.0	4.5	-1.6	i	-17.9	/
Cn1cc([N+](=O)[O-])c(C(=O)N/N=C/c2cc3c(cc2Br)OCO3)n1	0.6	-5.4	-7.6	0.4	1.7	i	-1.6	0.8
O=c1oc2ccccc2cc1-c1csc(Nc2nc3c(F)cccc3s2)n1	47.7	24.0	-0.8	-7.6	-6.9	i	-35.0	12.5
CCn1nc(C(=O)OCc2c(C)noc2C)c2ccccc2c1=O	-7.6	-2.2	-4.8	2.5	2.8	i	-8.1	-8.1
Cc1ccccc1CNC(=O)CCCC(=O)n1nc(C)c2ccccc21	-8.9	-7.1	-9.4	0.6	0.3	i	-16.9	-10.4
O=C(O)CSc1nc2sc3c(c2c(=O)n1Cc1ccccc1)CCCCC3	18.8	-6.5	-5.7	6.1	-2.7	i	5.3	-2.4
